KCNQ2 block: KCNQ2 potassium channel inhibitors, primary screen, cell-based, CHO-K1, FluxOR thallium flux, B-score (AID 2156); 20 min; stronger effect = lower value; only compounds with negative scores are shown here; some inactives read as strong as hits; B-score at 10 µM; actives 1.1% (n = 310,000);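 active means fluorescence ratio B-score at most minus 3 library SDs, with starting brightness B-score within 2 library SDs, cut at about -5.5 in these data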
Target sequence (O88943 whole entry, looked up): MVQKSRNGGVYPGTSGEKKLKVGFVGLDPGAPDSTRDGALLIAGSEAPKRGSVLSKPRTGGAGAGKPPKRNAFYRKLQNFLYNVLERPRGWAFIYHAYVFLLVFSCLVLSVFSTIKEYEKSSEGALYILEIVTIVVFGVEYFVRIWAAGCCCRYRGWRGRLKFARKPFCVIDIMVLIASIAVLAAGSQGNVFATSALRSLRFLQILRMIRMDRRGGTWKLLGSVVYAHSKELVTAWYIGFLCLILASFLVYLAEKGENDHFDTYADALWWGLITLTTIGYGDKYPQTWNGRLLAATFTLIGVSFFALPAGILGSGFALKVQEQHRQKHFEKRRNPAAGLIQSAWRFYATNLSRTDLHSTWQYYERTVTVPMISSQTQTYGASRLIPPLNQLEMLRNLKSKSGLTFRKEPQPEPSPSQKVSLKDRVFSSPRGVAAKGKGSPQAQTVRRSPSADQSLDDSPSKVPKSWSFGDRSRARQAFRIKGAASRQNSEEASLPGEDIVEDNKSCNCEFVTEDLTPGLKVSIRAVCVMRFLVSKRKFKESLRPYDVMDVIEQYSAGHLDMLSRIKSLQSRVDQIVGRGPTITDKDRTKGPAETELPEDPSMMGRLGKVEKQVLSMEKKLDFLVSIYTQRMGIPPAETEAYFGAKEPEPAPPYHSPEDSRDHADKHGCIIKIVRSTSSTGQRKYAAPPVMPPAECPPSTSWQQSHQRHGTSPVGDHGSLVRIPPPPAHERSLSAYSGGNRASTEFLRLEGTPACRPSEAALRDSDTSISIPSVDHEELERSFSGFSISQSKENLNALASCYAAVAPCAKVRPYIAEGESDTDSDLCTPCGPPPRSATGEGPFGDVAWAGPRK
KCNQ2 block baseline: recorded beside KCNQ2 block, whose call it bears; B-score; measured here: initial fluorescence intensity artifact check;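 brightness before thallium and not channel activity; 0 = typical well and far values either way flag optical interference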
An asterisk follows results filed as active; i = inactive. These rows are one share of the data (hit frequency here may not be typical).

SMILES	KCNQ2 block	KCNQ2 block baseline
Cc1nn(CC(=O)N/N=C/c2ccc3c(c2)OCO3)c(C)c1Br	i	0.4
CCCC(=O)N(CCN1CCOCC1)c1nc2c(C)cccc2s1	i	0.86
c1ccc(Nc2nc3ccccc3o2)cc1	i	0.01
CCC(=O)c1ccc(OCC(=O)OCC(=O)NCc2cccs2)cc1	i	0.83
O=C(c1cccc(C(F)(F)F)c1)C1CCCN(Cc2cccc(OCCO)c2)C1 (stereo not drawn)	i	0.06
O=C(NC(=S)NCc1ccccc1)C1CC1	i	1.07
CCOC(=O)c1csc(NC(=O)CN2CCOCC2)n1	i	-0.07
CCOC(=O)c1nc2cc3n(c(C)c-2c1C)C(C)C(C)=C3C (stereo not drawn)	i	2.32
COc1cccc(C(=O)NC(=S)N2CCN(c3ccc(C(F)(F)F)cc3[N+](=O)[O-])CC2)c1	i	0.01
CCc1ccccc1NC(=S)N(Cc1cccnc1)Cc1ccco1	i	1.57
CCOc1ccc(N2C(=O)S/C(=C\c3ccc(O)c(OC)c3)C2=O)cc1	i	0.8
COc1ccc(N2C(=O)CSCC2=O)cc1OC	i	0.05
COc1cccc(CN(C)C(=O)CNC(=O)c2ccc(-c3ccccc3)cc2)c1OC	i	0.37
CC1=C(C(=O)Nc2ccc(F)cc2)C(c2ccc(C)o2)C2=C(CC(C)(C)CC2=O)N1 (stereo not drawn)	i	-0.45
COc1ccc(CCCc2n[nH]c(=S)n2C)cc1C	i	2.07

Next part; it opens with the 4 that closed the last part.
SMILES	KCNQ2 block	KCNQ2 block baseline
COc1ccc(N2C(=O)CSCC2=O)cc1OC	i	0.05
COc1cccc(CN(C)C(=O)CNC(=O)c2ccc(-c3ccccc3)cc2)c1OC	i	0.37
CC1=C(C(=O)Nc2ccc(F)cc2)C(c2ccc(C)o2)C2=C(CC(C)(C)CC2=O)N1 (stereo not drawn)	i	-0.45
COc1ccc(CCCc2n[nH]c(=S)n2C)cc1C	i	2.07
O=c1[nH]c(CN(CCc2ccccc2)S(=O)(=O)c2ccc(Cl)cc2)nc2ccccc12	i	-1.03
COc1ccc2cc(C(N)=O)c(=Nc3ccccc3)oc2c1	i	-0.29
Cc1ccc(S(=O)(=O)NCCS(=O)(=O)N2CCN(c3ccccc3)CC2)cc1	i	0.68
C/C(=N/N=C/c1ccccc1O)c1ccccc1O	i	0.07
CCC(Sc1nc(N)c(NC(=O)c2ccc(OC)cc2)c(=O)[nH]1)C(=O)O (stereo not drawn)	i	2.04
Cc1cc2n(n1)C(c1ccc(N(C)C)cc1)Nc1ccccc1-2 (stereo not drawn)	i	-0.99
Cc1cccc(C)c1NC(=O)N1CC=C(n2c(=O)[nH]c3ccccc32)CC1	i	-0.5
CCCCn1c(N)c(N(CCC(C)C)C(=O)C2CCCN(C(=O)c3ccc(Cl)cc3)C2)c(=O)[nH]c1=O (stereo not drawn)	i	1.34
Cc1ccccc1OCc1nnc(SCC(=O)NCc2ccccc2)n1C	i	-0.83
Cc1nc2ccccc2c2oc(C(=O)NC3CC3)cc12	i	2.28
Cc1ccc(C(=O)NC(NCC2CCCO2)C(Cl)(Cl)Cl)cc1 (stereo not drawn)	i	0.27
CCOC(=O)c1oc2ccccc2c1NC(=O)CN1CCN(C)CC1	i	-0.98
Cc1ccc(NC(=O)c2ccc3nc[nH]c3c2)cc1C	i	0.71
CCOC(=O)C1=C(C)NC(C)=C(C(=O)OC)C1c1cccc(Cl)c1Cl (stereo not drawn)	-7.53*	0.04*
Cc1ccc(C)c(COC(=O)c2cc([N+](=O)[O-])ccc2N2CCOCC2)c1	i	-0.02

Filtered by structure, the compounds so far containing a nitro group on carbon (two)
SMILES	KCNQ2 block	KCNQ2 block baseline
COc1cccc(C(=O)NC(=S)N2CCN(c3ccc(C(F)(F)F)cc3[N+](=O)[O-])CC2)c1	i	0.01
Cc1ccc(C)c(COC(=O)c2cc([N+](=O)[O-])ccc2N2CCOCC2)c1	i	-0.02

Additional records.
SMILES	KCNQ2 block	KCNQ2 block baseline
Cc1cc(C)cc(N(CC(=O)Nc2cccc(C)c2C)S(=O)(=O)c2c(C)[nH]c(=O)[nH]c2=O)c1	i	-2.34
COCCN(C(=O)c1ccccc1)c1nc(-c2ccc(OC)cc2)cs1	i	2.84
NC(=O)NC(=O)COC(=O)c1sc2ccccc2c1Cl	i	-0.04
OCCC1CN(Cc2ccc3cc(Cl)ccc3n2)CCN1Cc1ccsc1 (stereo not drawn)	i	0.74
O=C(Nc1nc(-c2ccccn2)cs1)C1CCCC1	i	0.02
O=S(=O)(NCC(c1ccco1)N1CCc2ccccc2C1)c1ccc(F)cc1 (stereo not drawn)	i	-1.59
COCc1cc(Sc2ccc(OC)cc2)nc(-c2ccccc2)n1	i	2.12
Cc1cccc(C(=O)N[C@H](C(=O)NCCc2ccc(S(N)(=O)=O)cc2)C(C)C)c1	i	-0.72
COC(=O)CCC(=O)NS(=O)(=O)c1ccc(N=NN2CCOCC2)cc1	i	-1.76
CC1CCN(S(=O)(=O)c2ccc(C(=O)Nc3nnc(-c4ccncc4)o3)cc2)CC1	i	-0.07
COc1ccccc1N1CCN(S(=O)(=O)c2c(C)[nH]c(C)c2C(=O)N2CCCCC2)CC1	i	-0.63
O=C(NNC(=O)c1ccccc1[N+](=O)[O-])c1cnccn1	i	1.04
Clc1cccc(N/N=C/c2ccc(N3CCOCC3)cc2)c1	i	0.24
COCCNC(=O)CCc1c(C)nc2c(c(C)nn2-c2ccc(C)c(C)c2)c1C	i	0.43
CCN1CCC(NC(=O)Nc2cccc(C(F)(F)F)c2)CC1	i	0.14
CCOc1ccc(Nc2ccc3nonc3c2[N+](=O)[O-])cc1	i	0.02
Cn1c2ccccc2c(=O)c2c(O)cccc21	i	-0.29
OCC1(Cc2ccccc2)CCCN(Cc2ccc(-c3ccco3)cc2)C1 (stereo not drawn)	i	-0.05
CCC(c1nnnn1C(C)(C)CC)N(CCCO)Cc1cc2cccc(C)c2[nH]c1=O (stereo not drawn)	i	1.21
O=C(CCCn1nnnc1CN1CCOCC1)N1CCC(c2ccc(F)cc2)C1 (stereo not drawn)	i	0.6
CCc1ccccc1NC(=O)Nc1ccc(F)cc1F	i	1.97
Cc1cc(N2C(=O)C(O)=C(C(=O)c3ccco3)C2c2cccc(Oc3ccccc3)c2)no1 (stereo not drawn)	i	0.02
C=CCn1c(SCn2nnc3ccccc3c2=O)nnc1-c1ccc(F)cc1	i	0.78
Cc1cccc(CSc2[nH]c(=O)ncc2C)c1	i	1.13
CC(C)C(=O)N1CCC2(CC1)Oc1ccc(F)cc1C(=O)C21CC(c2ccc(Cl)cc2)=NO1 (stereo not drawn)	i	-1.49
Cc1ccc(Nc2nc3ccccc3c(=O)[nH]2)cc1C	i	-0.22
CCc1ccc(-c2cc(C)no2)cc1S(=O)(=O)N1CCN(c2ccc(OC)cc2)CC1	i	1.12
CC(C)Cn1c2c(c(O)c(C(=O)Nn3c(Cc4ccccc4)nc4ccccc4c3=O)c1=O)CCCC2	-6.26*	3.08*
CC(=O)Nc1ccc(/C=C/c2ccc3cccc([N+](=O)[O-])c3n2)cc1	i	0.23
Fc1ccccc1N1CCN(Cc2cc(-c3ccccc3)on2)CC1	i	-1.73
CCOC(=O)C1=C(O)CSC1=Nc1cccc2ccccc12	i	-0.76
O=C(CO/N=C/c1ccc(Cl)cc1Cl)NNC(=O)c1cccc(Cl)c1	i	-0.57
CCOc1ccccc1/C=N/n1c(COc2ccccc2)n[nH]c1=S	i	-0.14
O=C(CSc1nc2ccccc2c(=O)n1CCCO)NCc1ccccc1	i	-0.76
CC1Oc2ccccc2C=C1/C=N/NC(=O)c1ccccc1O (stereo not drawn)	i	2.81
Cn1cnnc1Sc1ccc(C(=O)NCCC23CC4CC(CC(C4)C2)C3)cc1[N+](=O)[O-]	i	1.81
Cc1ccccc1C1NC(=O)c2ccccc2O1 (stereo not drawn)	i	2.12
O=C(O)c1ccc(N2CCN(C(c3ccccc3)c3ccccc3)CC2)c([N+](=O)[O-])c1	i	0.04
CC(C)(C)C(=O)NCCc1nc2ccccc2n1CC(=O)c1ccc(Cl)cc1	i	-1.75
C=CCNC(=O)COC(=O)c1ccc(Cl)c(S(=O)(=O)N(Cc2ccccc2)c2ccccc2)c1	i	1.24
Cc1ccc(C(=O)Nc2ccc(S(=O)(=O)N3CCN(C)CC3)cc2)o1	i	0.27
COc1ccc(C2c3ccc4ccccc4c3Oc3ncn(CCN(C)C)c(=N)c32)cc1 (stereo not drawn)	i	-0.81
CN(C(=O)Nc1cnc2ccccc2c1)c1ccccc1	i	-0.04
CCCc1nc2sc3c(c2c(=O)n1N)CCC3	i	-0.28
Cc1nc(C(=O)O)cc2c1[nH]c1ccccc12	i	0.52

Reformatted: three of the compounds above
compound,KCNQ2 block,KCNQ2 block baseline
O=C(CSc1nc2ccccc2c(=O)n1CCCO)NCc1ccccc1,i,-0.76
CC1Oc2ccccc2C=C1/C=N/NC(=O)c1ccccc1O (stereo not drawn),i,2.81
Cn1cnnc1Sc1ccc(C(=O)NCCC23CC4CC(CC(C4)C2)C3)cc1[N+](=O)[O-],i,1.81

Next entries:
SMILES	KCNQ2 block	KCNQ2 block baseline
CCC(Cc1ccccc1)NC(=O)C1=C(C)C(=O)OC12CCC(C)CC2 (stereo not drawn)	i	-0.4
c1ccc(CN2CCN(c3nc(-c4ccccc4)nc(-n4ccnc4)n3)CC2)cc1	i	0.19
COc1ccc(NC(=O)C(OC(=O)c2cnc(C)cn2)c2ccccc2)cc1Cl (stereo not drawn)	i	-2.93
Cc1ccc(N(C(=O)c2csnn2)C(C(=O)NC(C)(C)C)c2cccnc2)cc1 (stereo not drawn)	i	-0.27
COc1ccc(NC(=O)CN2CCN(S(=O)(=O)N(C)C)CC2)cc1	i	0.38
CN(C)S(=O)(=O)c1ccc(Cl)c(NC(=O)COC(=O)CN2C(=O)NC(C)(C)C2=O)c1	i	0.94
c1ccc(CCn2nnc3ccccc32)cc1	i	-1.51
CCOC(=O)CN(C(=O)COc1nc(-c2ccccc2)cc(C)c1C#N)c1ccc(C)cc1	i	-0.1
O=C(Nc1ccccc1)c1cccc(=O)o1	i	1.15
O=C1CSC(=O)N1CC(O)COc1ccc(Cl)cc1 (stereo not drawn)	i	0.1
Cc1nc(C)c(-c2csc(N)n2)s1	i	-1.28
Cc1cc(C(=O)COC(=O)c2ccc(O)cc2)c(C)n1Cc1ccco1	i	-0.1
c1ccc(C2CN3CCSC3=N2)cc1 (stereo not drawn)	i	-0.97
Cc1c(Cl)c([N+](=O)[O-])nn1CC(=O)NCCCN1CCOCC1	i	-0.63
COc1ccc(Cn2c(C)nc([N+](=O)[O-])c2SCC(=O)O)cc1[N+](=O)[O-]	i	-0.98
COc1ccc(NC(=S)NNC(=O)c2cccnc2)cc1OC	i	0.05
COc1cnn(-c2ccccc2)c(=O)c1N(C)C	i	-0.23
O=C(CCc1ccccc1)NCCCN1CCOCC1	i	0.02
COc1ccc(NC(C)=O)cc1S(=O)(=O)Nc1ccc2c(c1)OCCO2	i	0.97
N#Cc1ccc(OCC(=O)Nc2ccc3[nH]c(=O)[nH]c3c2)cc1	i	-0.14
CCOc1ccc(NC(=O)C/C(C)=N/NC(=O)Cc2ccc(Cl)cc2)cc1	i	0.12
Cc1csc(NC(=O)c2cccn2C)n1	i	-0.79
COc1c(F)c(F)c(C(=O)O)c(Nc2ccccc2)c1F	i	0.52
COc1ccc(NC(=O)Nc2nnc(-c3ccccc3F)s2)cc1	i	2.84
O=c1[nH][nH]cc1C=Nc1ccccc1O	i	-1.25
CC(C)(C)C(=O)OC/C(N)=N/OC(=O)c1ccc(Cl)c(Cl)c1	i	-1.23
CC(C)Cn1c(SCC(=O)N2CC(=O)Nc3ccccc32)nc2ccccc21	i	0.6
N/C(=N\OC(=O)CSc1ccccc1)c1ccccn1	i	-0.09
Cc1ccc(S(=O)(=O)Nc2ccc(-c3nnc(SCc4ccccc4Cl)o3)cc2)cc1	i	0.95
Cn1cc(CCC(=O)N2CCCC(C(=O)c3ccc(C(C)(C)C)cc3)C2)cn1 (stereo not drawn)	i	-0.36
COc1ccccc1CNC(=O)CS(=O)(=O)Cc1ccccc1	i	-1.27
COc1ccc(S(=O)(=O)N(CCc2ccccc2)CC(=O)O)cc1C	i	0.95
CC(=O)c1cccc(NS(C)(=O)=O)c1	i	0.36
COc1cccc(-n2c(C)nnc2SCC(=O)Nc2ccccc2N2CCOCC2)c1	i	-0.08
CC(C)Cc1nn2c(=O)cc(COc3ccc(NC(=O)c4ccco4)cc3)nc2s1	i	1.61
O=C(O)CCNS(=O)(=O)c1ccc2c(c1)Cc1ccccc1-2	i	0.23
O=C(NCCc1ccccc1)C1CCC(CNc2nc(=S)[nH]c3ccccc23)CC1 (stereo not drawn)	i	-0.69
CCOc1ccccc1-c1nnc(CS(=O)(=O)c2ccccc2)o1	i	1.03
Cc1cccc(C)c1NC(=O)C1c2cccc[n+]2CC(=O)N1Cc1cccs1 (stereo not drawn)	i	0.53
CCCCNC(=O)CCCn1c(=O)[nH]c2ccc(Br)cc2c1=O	i	-0.09
CC1CCC(NC(=O)c2ccc(NC3=NC4CS(=O)(=O)CC4S3)cc2)CC1 (stereo not drawn)	i	-0.28
Nc1ccc2c(c1)nc(Cc1ccccc1)n2CCO	i	-0.76
Cc1ccc2c(NC(=O)C3CC3)c(C)ccc2n1	i	0.35
O=C(CN(C(=O)c1cc2c(s1)CCC2)C1CCCC1)NCc1cccs1	-7.14*	0.73*
COc1ccc(CNCc2ccccc2C(F)(F)F)cc1	i	0.01
CCOC(=O)N1CCN(Cc2cn[nH]c2-c2cccc3ccccc23)CC1	i	1.01

Profiles as entered above. Order of values: KCNQ2 block, KCNQ2 block baseline
CC(=O)c1cccc(NS(C)(=O)=O)c1 as listed: i, 0.36
CCOc1ccccc1-c1nnc(CS(=O)(=O)c2ccccc2)o1 as listed: i, 1.03
CCOC(=O)N1CCN(Cc2cn[nH]c2-c2cccc3ccccc23)CC1 as listed: i, 1.01
CC(C)Cc1nn2c(=O)cc(COc3ccc(NC(=O)c4ccco4)cc3)nc2s1 as listed: i, 1.61
COc1ccccc1CNC(=O)CS(=O)(=O)Cc1ccccc1 as listed: i, -1.27

Source: PubChem (Johns Hopkins Ion Channel Center)
